NPYLR7 agonist – mosquito NPYLR7 agonism. HEK293T NPYLR7/Galpha15, GCaMP6s calcium fluorescence. activation, % at 10 µM. actives 0.15% (n = 270,000); in the data active = activation above about 40%;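 note: 0% = vehicle and 100% = reference agonist at the receptor; some compounds past the cut are filed as inactive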
NPYLR7 agonist max-min – also measured in NPYLR7 agonist; calls as there; activation, %; measured here: Max-Min RFU normalised activation; some inactives read as strong as hits;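 span of the calcium signal over five minutes; 0% = vehicle and 100% = native peptide agonist; compound fluorescence can raise it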
An asterisk follows results filed as active; & = joins results of further samples. The list is partial; the hit share may differ from the screen's.

SMILES	NPYLR7 agonist	NPYLR7 agonist max-min
CC(C)N(Cc1nccn1C)C(=O)c1ccc2oc(CCc3ccccc3)nc2c1	19.0	5.5
O=C(NCc1ccccn1)c1cccc(OC2CCN(C(=O)c3ccsc3)CC2)c1	11.8	8.2
Cc1nc(CCC(=O)N2CCC3(CCCN(CCCc4ccccc4)C3)C2)n[nH]1 (stereo not given)	3.1	-0.6
CC(C(=O)Nc1ccc(F)cc1Cl)N1CCN(c2ccc([N+](=O)[O-])c3cnccc23)CC1 (stereo not given)	0.9	1.2
N#Cc1ccccc1CSCCNc1ncnc2c1cnn2-c1ccccc1	10.2	8.0
CCOC(=O)c1cnc2cc(C(F)(F)F)ccc2c1Nc1ccccc1O	5.4	5.1
C=C(C)Cn1c(C(=O)N2CCN(C/C=C/c3ccccc3)CC2)cc2ccsc21	-4.9	3.4
CN(C)[C@@H]1C(=O)C(C(=O)NCNC(CCCCN)C(=O)O)C(=O)[C@@]2(O)C(=O)C3=C(O)c4c(O)cccc4[C@@](C)(O)[C@H]3C[C@@H]12 (stereo not given in full)	21.4	10.0
CC(NC(=O)NCCc1ccccc1)c1ccc(Br)cc1 (stereo not given)	-5.0	-5.9
NC(=O)c1cccnc1N1C[C@H]2OC(=O)N(CCc3ccc(F)cc3)[C@H]2C1	-0.7	-6.8
CC(C)(C)c1ccccc1NC(=O)c1cccc(C(=O)N2CCCC2)n1	-13.8	-17.0
COc1ccc(-c2csc(NC3CCCC3)n2)c(OC)c1	5.5	0.3
Cc1cc(C)c(C(=O)N2CCC3(CCN(C)C3)CC2)c(C)c1	7.1	6.4
COCCOc1nc(-c2cccs2)n(-c2cccc(NC(=O)c3cccc(F)c3)c2)n1	15.9	19.9
CCCc1nc(N2CCCC(C(=O)OCC)C2)c2cnn(C)c2n1 (stereo not given)	-1.6	-5.2
Cc1ccc2c(CN3CCCC3c3ccccc3)cc(=O)oc2c1C (stereo not given)	0.1	3.9
COc1cc(N2CCC(N3CCCC(C(=O)NC4CC4)C3)CC2)ncn1 (stereo not given)	23.4	17.1
CC1(C)CC(=O)C2C(=Nc3ccccc3NC2c2coc3c(Cl)cc(Cl)cc3c2=O)C1 (stereo not given)	-0.3	-0.9
CCCNC(=O)Cn1nc2c(c1NC(=O)CSCc1ccccc1)CSC2	1.2	12.6
Nc1nonc1-n1nnc(C(=O)N/N=C\c2coc3ccccc3c2=O)c1-c1ccccc1	13.0	11.8
COc1cccc(-n2cc(CN(C)Cc3nc(-c4ccccc4)no3)cn2)c1	15.0	10.5
O=C(c1cccc(F)c1F)N1CCC(n2nc(-c3ccccc3)cc2-c2ccccc2)CC1	2.3	0.6
CCOC(=O)c1c(NC(=O)COC(=O)C2C3CC4CC(C3)CC2C4)oc(C)c1C(C)=O (stereo not given)	-1.9	-4.4
N#Cc1ccccc1CNC1CCCC1	7.4	5.1
COc1ncc(CN(C)C(C)c2ccccn2)cn1 (stereo not given)	12.8	9.6
N#CN=C(c1ccccc1)c1ccccc1	7.8	7.1
O=C1CN(C(=O)Cc2ccc(Cl)c(Cl)c2)c2ccc(S(=O)(=O)N3CCCCC3)cc2N1	9.4	11.7
CN(CC1COCCO1)c1nc(-c2cccnc2)nc2c1cnn2C (stereo not given)	4.7	3.8
O=c1c2cc(NCc3ccccc3C(F)(F)F)ccc2nc2n1CCC2	5.4	2.0
CCOC(=O)c1nn(-c2ccc(C)cc2)c(=O)cc1OS(=O)(=O)c1cc(C)c(OC)cc1C	1.8	0.6
Cc1ccc(-n2c(SCc3ccccc3)nnc2C(Cc2ccccc2)NC(=O)Nc2ccc(F)c(F)c2)cc1 (stereo not given)	-2.2	0.3
Cc1cccc(C(N)=NOC(=O)CCCc2ccccc2)c1	-0.9	4.2
OCCC1CN(C(=S)Nc2ccccc2)CCN1Cc1ccncc1 (stereo not given)	11.0	14.6
CC(=O)N[C@H]1CCN(C(=O)c2ccc(NC(=O)C3CCC3)cc2)C1	-2.3	-10.7
COc1cccc(C(=O)N2C(C(=O)NC(C)c3ccccc3)COC23CCN(C(=O)CC(C)(C)C)CC3)c1 (stereo not given)	17.8	26.5
CCCCCCSC1=C(C#N)C(=O)NC(CO)S1 (stereo not given)	4.5	-2.9
Cc1cc(N2CCCCC2)nc(Nc2ccc(NC(=O)CC(C)C)cc2)n1	16.9	8.6
S=C(Nc1ccn(C23CC4CC(CC(C4)C2)C3)n1)NC1CCCC1	-21.4	-27.9
CCCc1c(C)nn(-c2ccc(C(=O)NCCSCc3ccccc3)cc2)c1C	-6.3	-12.7
CC(NC(=O)c1cccc(S(=O)(=O)NCc2ccc3c(c2)OCO3)c1)c1cccs1 (stereo not given)	0.2	5.9

Given in CSV form: 5 of the compounds above.
structure,NPYLR7 agonist,NPYLR7 agonist max-min
S=C(Nc1ccn(C23CC4CC(CC(C4)C2)C3)n1)NC1CCCC1,-21.4,-27.9
O=C(c1cccc(F)c1F)N1CCC(n2nc(-c3ccccc3)cc2-c2ccccc2)CC1,2.3,0.6
CCCc1c(C)nn(-c2ccc(C(=O)NCCSCc3ccccc3)cc2)c1C,-6.3,-12.7
O=C1CN(C(=O)Cc2ccc(Cl)c(Cl)c2)c2ccc(S(=O)(=O)N3CCCCC3)cc2N1,9.4,11.7
Cc1cc(N2CCCCC2)nc(Nc2ccc(NC(=O)CC(C)C)cc2)n1,16.9,8.6

Later entries
SMILES	NPYLR7 agonist	NPYLR7 agonist max-min
CCOc1ccccc1N1CCN(C(=O)c2cc(-c3cccn3C)nn2-c2ccc(Cl)c(Cl)c2)CC1	13.6	25.4
O=C(CCCOCc1ccccc1)Nc1cnc2n1CCCC2	1.3	-3.2
COc1ccc(-c2csc(NC(=O)c3ccc4c(c3)CCN4S(C)(=O)=O)n2)cc1Cl	-6.6	-7.2
O=C(O)c1cnc(/C=C/c2ccc(N3CCOCC3)cc2)s1	8.3	3.8
CCCc1ccc(S(=O)(=O)Nc2ccccc2C(=O)NCCc2ccc(F)cc2)cc1	32.1	19.6
Cc1cc(Nc2ccc(Cl)cc2)n2nc(C)c(-c3ccccc3)c2n1	0.1	30.0
C#CCN1CCC(C(=O)N2CCC(Cc3ccc(F)cc3)CC2)CC1	6.0	3.4
COc1ccc(CNC(=O)NCC(c2ccsc2)N2CCN(C)CC2)cc1OC (stereo not given)	6.6	-2.1
Cc1ccc(C(=O)NCCNC(=O)C(C)Oc2cccnc2)cc1F (stereo not given)	5.3	5.5
C=CCOc1ccc(C=C2N=C(c3ccc(F)cc3)OC2=O)cc1	3.0	-0.2
CCC(=O)Nc1ccc(N(C)C)c(CN(Cc2ccc(F)cc2)C(=O)NC(C)C)c1	4.6	4.8
OCc1ccc2c(c1)c1c3n2CCNC3CCC1 (stereo not given)	2.9	0.0
CCOc1ccc(C(=O)Nc2cccc(Cl)c2N2CCN(CC)CC2)cc1	8.9	11.2
COCN(C#N)c1nc(N(C)C)nc(N(C)C)n1	8.9	6.6
O=c1cc(C(F)(F)C(F)F)oc2ccc(Cl)cc12	0.1	-2.9
O=C(Nc1nccs1)c1cc(-c2ccc(Br)cc2)n[nH]1	6.0	5.2
CC1CCN(C(=O)C(C)N2CCN(c3ccccc3O)CC2)CC1 (stereo not given)	-16.1	-18.5
O=C1CC(Cn2c(=O)oc3ccccc32)c2cnn(-c3ccccc3)c2N1 (stereo not given)	4.7	1.0
CCCOc1ccccc1C(=O)N1CCCN(C)C2(CCN(C)CC2)C1	8.9	6.3
CC1=C(CCN2CCN(C)CC2)C(C)(C)CCC1	-13.4	-18.2
CC(C)Oc1n[nH]c(-c2ccc3c(c2)OCO3)n1	17.9	5.3
Cc1nc(C(C)C)sc1C(=O)NCc1ccc2c(c1)OCCCO2	3.7	-1.8
O=c1cc(CSc2ccc3ccccc3n2)nc2sccn12	-1.8	6.0
CNc1ccc(-c2ccc(NC(=O)OC)cc2)cn1	0.1	-1.9
COc1ccc(OC)c(-c2cnc(-c3ccc(CNC(=O)c4cccs4)cc3)[nH]2)c1	5.8	5.9
O=C(NC1CCN(c2ccccc2C(=O)NC2CCCc3ccccc32)CC1)c1ccc(Cl)cc1 (stereo not given)	1.6	6.8
Cn1c(=O)oc2ccc(C(=O)N3CC(c4ccncc4)C3)cc21	1.9	-0.3
CCOc1cccc2c1OC[C@@H]1CN(CCC#N)C(=O)CCN(C(=O)Cc3cccs3)[C@H]21	28.8	33.2
COCCN(Cc1ccco1)CC(O)COc1ccc(OC)cc1 (stereo not given)	19.8	32.1
CCCc1nc(N2CCN(C(=O)c3cccc([N+](=O)[O-])c3)CC2)c2c(C)nn(-c3ccc(F)cc3)c2n1	-5.1	5.3
Cn1cnnc1Sc1ccc(CN2CCCC(N3CCN(c4ccccc4)CC3)C2)o1 (stereo not given)	2.7	4.4
Cn1nc(C(=O)N2CCc3cc(S(=O)(=O)N4CCCCC4)ccc32)ccc1=O	2.6	-1.4
COC1CCN(C(=O)NCC(N)=O)CC(=O)N(C)c2ccccc21 (stereo not given)	5.3	18.4
N#CC1C(=N)Oc2cc(N)ccc2C1c1cccnc1 (stereo not given)	11.6	5.2
CC(C)NC(=O)C(NC(=O)c1ccc(F)cc1)C1CCN(C(=O)c2cccc(Br)c2)CC1 (stereo not given)	4.1	3.0
CCCCC(CC)C(=O)Oc1ccc(-c2nc3ccc(Br)cn3c2NC2CCCCC2)cc1OC (stereo not given)	5.6&-11.7	3.0&-2.2
CS(=O)(=O)N1CCC(c2nc(-c3ccc(C(F)(F)F)cc3)no2)CC1	2.7	0.2
CCN1Cc2cc3c(cc2N(CC(O)CC(F)(F)F)CCC1=O)OCO3 (stereo not given)	1.8	6.7
COc1cccc(C2C(C(=O)c3cccs3)=C(O)C(=O)N2CCN2CCOCC2)c1OC (stereo not given)	-0.7	5.4
CC(NC(=O)NCc1cccnc1)c1ccc(Cl)c(Cl)c1 (stereo not given)	-1.4	0.3
CC(C(=O)Nc1sc2c(c1C(N)=O)CCC2)N1CCN(CCOc2ccccc2Cl)CC1 (stereo not given)	4.1	0.6
O=C(CCC1CCN(Cc2cc3ccccc3s2)CC1)NCC1CCCO1 (stereo not given)	8.4	2.3
CC1CCCCN1Cc1ccc(CNC(=O)c2ccc(NS(C)(=O)=O)cc2)cc1 (stereo not given)	5.4	6.7
O=C1CN(C(=O)c2ccc(C3CCCCC3)cc2)CCN1	-0.1	-1.0
O=C1/C(=C/c2cccs2)CCC/C1=C\c1cccs1	4.9	4.8
CCCCc1ccc(C(=O)N2CCN(C(=O)CN3CCc4sccc4C3c3ccc(Cl)cc3)CC2)cc1 (stereo not given)	2.0	-5.1
Cc1nn(-c2nc3ccccc3[nH]2)c2c1C(=O)CC(c1ccccc1)C2 (stereo not given)	4.6	4.8
COc1cccc(-c2nc(OCC(C)C)nn2-c2cccc(NC(=O)c3cccs3)c2)c1	6.6	12.2
O=C(NCCc1ccc(Cl)cc1Cl)C1CSC2(CCNCC2)N1 (stereo not given)	17.9	22.4
Cc1ccc(C)c(S(=O)(=O)N2CCN(C(=O)C3CCC3)CC2)c1	1.4	2.3
CNC(=O)c1cc2cc(OC)ccc2oc1=N	-5.6	-9.3
CCOC(=O)c1nc2cc(Cl)c(Cl)cc2nc1N1CCCN(C(=O)CCc2ccccc2)CC1	5.4	1.8
CN(C)CCCN1C(=O)NC(Cc2cccc(F)c2)(C2CCN(C(=O)C3=CCCC3)CC2)C1=O (stereo not given)	20.7	5.3
Cc1ccccc1C(=O)N1CCC1(C)C(=O)NC(C)C (stereo not given)	-2.6	-6.1
CCc1cn[nH]c1C1CCN(C(=O)C2(S(=O)(=O)c3ccccc3)CC2)CC1	-5.1	-7.4
O=C(Cn1cc(-c2nnc(-c3ccccc3)o2)c2ccccc21)N1CCOCC1	0.1	3.6
CC(C)Cc1ccc(C(C)C(=O)NCCc2c[nH]c3ccccc23)cc1 (stereo not given)	-7.7	-11.3
Cc1cccnc1[C@H](C)NC(=O)C1(c2ccc(F)cc2)CCOCC1	-3.2	-6.5
COc1cn(CC(=O)NCc2ccccc2Cl)c(CSc2nnc(C)s2)cc1=O	-4.2	-8.3
Nc1cc(N)cc(C(=O)N2CCCCC2)c1	-0.6	-2.4
Next results
SMILES	NPYLR7 agonist	NPYLR7 agonist max-min
O=C(NC1CCCCCC1)c1cc2c(s1)CS(=O)(=O)C2	3.8	2.4
O=C1CC(C(=O)N2CCC3(CCCO3)CC2)CN1Cc1ccccn1 (stereo not given)	9.3	5.2
CCN(CC)c1ncccc1CNC(=O)c1coc2c1C(=O)CCC2	2.5	-1.1
COc1ccc(OC)c(C2SCC(=O)N2CC(=O)NCc2ccco2)c1 (stereo not given)	8.2	16.5
O=C(O)CC1CNCCN(C(=O)c2cccc(Oc3ccccc3)c2)C1 (stereo not given)	24.5	18.0
O=C(NCc1ccc(S(=O)(=O)N2CCOCC2)s1)c1ccccn1	26.9	14.1
Cc1c(C(C)NC(=O)C2(c3ccccc3)CCCCC2)cnn1-c1ccccn1 (stereo not given)	9.3	3.2
O=C(CSc1nc2ccccc2[nH]1)N1c2ccccc2Sc2ccccc21	0.7	-1.6
NC(=O)CCN(C(=O)C1CSc2ccccc2O1)c1ccc(F)cc1 (stereo not given)	-2.6	-4.4
Cc1noc(C)c1CN(C)C(=S)Nc1cccc(C(F)(F)F)c1	10.5	8.6
COCCn1c(=O)c2c(nc3n2CCN3c2ccc(C)c(Cl)c2)n(C)c1=O	1.3	5.5
CCn1c(C)cc(O)c(C(c2ccc(OC)cc2OC)N2CCN(c3ccccc3F)CC2)c1=O (stereo not given)	-1.7	-3.4
CC(C)C(=O)NC(NC(=S)Nc1ccc(C(=O)O)cc1)C(Cl)(Cl)Cl (stereo not given)	-15.4	-18.3

Quoted from the listing for reference:
SMILES	NPYLR7 agonist	NPYLR7 agonist max-min
O=C(NC1CCCCCC1)c1cc2c(s1)CS(=O)(=O)C2	3.8	2.4
O=C1CC(C(=O)N2CCC3(CCCO3)CC2)CN1Cc1ccccn1 (stereo not given)	9.3	5.2
CCN(CC)c1ncccc1CNC(=O)c1coc2c1C(=O)CCC2	2.5	-1.1
COc1ccc(OC)c(C2SCC(=O)N2CC(=O)NCc2ccco2)c1 (stereo not given)	8.2	16.5
O=C(O)CC1CNCCN(C(=O)c2cccc(Oc3ccccc3)c2)C1 (stereo not given)	24.5	18.0
O=C(NCc1ccc(S(=O)(=O)N2CCOCC2)s1)c1ccccn1	26.9	14.1
